CDC25B CDK2 inh: human CDC25B-CDK2/CyclinA binding inhibition | P30305+P24941 | HTRF CDC25B-CDK2/CyclinA binding, anti-His/anti-Flag; active compounds read high | z-score (no concentration beside the values) | 94,000 compounds, 0.72% hits | AID 1259370;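 further: score is relative to mean and SD of negative controls; strong numbers were not always called active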
HIV TAR-Tat: HIV-1 TAR-Tat binding disruption | HIV-1 TAR RNA, Tat peptide displacement FRET; active compounds read high | z-score (no concentration beside the values) | 100,000 compounds, 0.6% hits | AID 1259389;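 further: score is relative to mean and SD of negative controls; some compounds called inactive have numbers as strong as hits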
Active calls of the source: *.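 How the source made its calls: active means z-score from 3 up in half or more of its runs; inactive means the rest.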

Screening COc1ccc(Cc2nc(-c3ccc(Cl)cc3)no2)cc1OC returned CDC25B CDK2 inh 0.58 and HIV TAR-Tat 3.
Cn1c(O)c(C2=Nc3ccccc3SC(c3cccc4ccccc34)C2)c(=O)[nH]c1=O (stereo not drawn) was read as CDC25B CDK2 inh -1.4 and HIV TAR-Tat 1.5.
For Cc1nc(N2CCN(c3ccccn3)CC2)c2c3c(sc2n1)CCCC3 the results were CDC25B CDK2 inh -2.8.
Screening COCC(=O)Nc1ccc2nc3n(c(=O)c2c1)CCCC3 returned CDC25B CDK2 inh 0.49 and HIV TAR-Tat -0.26.
O=C(c1cc2ccccc2s1)N(Cc1ccccn1)Cc1ccccn1 was read as CDC25B CDK2 inh -1.6.
For CCN(CC)S(=O)(=O)c1c(C)nn(S(=O)(=O)c2cc(OC)ccc2OC)c1C the results were HIV TAR-Tat 0.99.
Screening CCC(C)N1C(=O)c2c(NC(C)=O)c3cc(F)ccc3n2CC1(C)C(=O)NC1CCCC1 (stereo not drawn) returned HIV TAR-Tat -0.54.
`CCOC(=O)N1CCN(c2ncnc3n[nH]c(Br)c23)CC1` gave CDC25B CDK2 inh -0.61 and HIV TAR-Tat 1.1.
Screening Cc1nc2ccccc2c2c1C(=O)N(CC(C)C)C2=O returned CDC25B CDK2 inh -0.98 and HIV TAR-Tat -0.86.
For CCNc1cc(N2CCN(c3ccccc3)CC2)c2noc3c2c1C(=O)c1ccccc1-3 the results were CDC25B CDK2 inh 0.33 and HIV TAR-Tat 1.2.
Screening Cc1nn(C)c(C)c1CNS(=O)(=O)c1ccc(C(C)C)cc1 returned HIV TAR-Tat 0.31.
`Cc1ccc(Nc2c(-c3ccsc3)nc3ccccn23)cc1` gave CDC25B CDK2 inh -0.62 and HIV TAR-Tat 0.1.
O=S(=O)(NCCc1csc2nc(-c3ccccc3)nn12)c1ccccc1F was read as HIV TAR-Tat 0.56.
Cc1nn(CC(=O)NCCCN2CCN(C3CCCCC3)CC2)c(=O)c2cc3sccc3n12 was read as CDC25B CDK2 inh -0.98 and HIV TAR-Tat 0.74.
`Cc1ccnc(Nc2nc(-c3ccc(O)c(O)c3)cs2)c1` gave CDC25B CDK2 inh -1.2 and HIV TAR-Tat 10*.
Cc1ccc(C)c(NS(=O)(=O)c2cc3c4c(c2)C(C)C(=O)N4CCC3)c1 (stereo not drawn) was read as HIV TAR-Tat 2.1.
For CN(C)c1ccc(C2OCCN2C(=S)Nc2ccccc2F)cc1 (stereo not drawn) the results were CDC25B CDK2 inh -2.1.
`CSc1ccc(C(=O)NC(=O)Nc2cc(C)on2)s1` gave CDC25B CDK2 inh -0.5.
Screening CCCNC(=O)C1Cc2cc(S(=O)(=O)N3CCOCC3)ccc2N1C(C)=O (stereo not drawn) returned HIV TAR-Tat 0.51.
Screening O=C(Cn1c(=O)n(Cc2cccs2)c(=O)c2ccc(Cl)cc21)NCC1CCCO1 (stereo not drawn) returned CDC25B CDK2 inh 0.48.
`CCn1cc(C2N3CC4(C)CN2CC(C)(C3)C4O)c2ccccc21` (stereo not drawn) gave CDC25B CDK2 inh 1.5.
For CC(=O)N1N=C(c2ccc([N+](=O)[O-])s2)OC1c1cc(C)nc2ccccc12 (stereo not drawn) the results were HIV TAR-Tat -0.8.
Screening O=C(COc1ccc(F)cc1)Nc1ccc(OCc2cc(=O)n3cc(Cl)ccc3n2)cc1 returned HIV TAR-Tat 0.01.
`CCCNc1nc(N2CCN(CCC)CC2)nc2c1cnn2C` gave HIV TAR-Tat 0.51.
Screening CCOc1cc(C2Nc3ccccc3-n3cc4c(=O)n(C)c(=O)n(C)c4c32)ccc1O (stereo not drawn) returned CDC25B CDK2 inh -1.3 and HIV TAR-Tat 2.2.
Cc1cc(-c2ccc(=O)[nH]n2)cc(S(=O)(=O)N2CCN(c3ccc(F)cc3)CC2)c1C was read as HIV TAR-Tat 2.1.
Cc1noc2ncnc(NC3CCC(C)CC3)c12 (stereo not drawn) was read as HIV TAR-Tat 0.85.
Clc1cccc2c1nc(-c1ccccc1)n1nnnc21 was read as CDC25B CDK2 inh -0.77.
Screening CCOC(=O)c1c(C)oc2ncnc(N3CCN(C(=O)c4ccco4)CC3)c12 returned HIV TAR-Tat -1.1.
For CNC(=O)c1c(NC(=O)c2cc(=O)c3c(C)cc(C)cc3o2)sc2c1CCCC2 the results were CDC25B CDK2 inh -0.84 and HIV TAR-Tat 1.5.
For Cc1cc(=O)nc2c3ccccc3n(CC(=O)NC3CCCc4ccccc43)n12 (stereo not drawn) the results were CDC25B CDK2 inh -1.1 and HIV TAR-Tat -3.1.
`CCC(Cn1nnn(-c2ccccc2)c1=O)NC(=O)Cc1nn(CC)c(=O)c2ccccc12` (stereo not drawn) gave CDC25B CDK2 inh -0.87 and HIV TAR-Tat -0.85.
CC(C)c1nn2c(=O)cc(COc3cccc(NS(C)(=O)=O)c3)nc2s1 was read as CDC25B CDK2 inh -0.06 and HIV TAR-Tat 0.03.
CCCc1c(C)nc2ncnn2c1Nc1ccc(CC)cc1 was read as CDC25B CDK2 inh -2.2 and HIV TAR-Tat -0.69.
CC(CC(C)(C)O)=NCc1ccccc1 was read as CDC25B CDK2 inh -1.2.
O=C(NCc1ccco1)c1ccc2c(c1)N(Cc1ccc(Cl)cc1)CCS2 was read as CDC25B CDK2 inh -0.61.
Screening Cc1ccc(S(=O)(=O)c2nc(-c3cccs3)oc2NCc2ccccc2)cc1 returned CDC25B CDK2 inh 0.95 and HIV TAR-Tat -6.1.
COc1ccc(CCN2C(=O)C(Oc3ccccc3)C2c2ccc3c(c2)OCO3)cc1 (stereo not drawn) was read as CDC25B CDK2 inh 1.9 and HIV TAR-Tat -0.26.
For COc1ccc(-n2nnnc2C2CCN(S(=O)(=O)c3c(C)cc(C)cc3C)CC2)cc1 the results were CDC25B CDK2 inh -2.3 and HIV TAR-Tat 2.8.
`COC(=O)c1c(SCC(=O)Nc2ccc(OC)c(OC)c2)[nH]c2cc(Cl)ccc2c1=O` gave HIV TAR-Tat 6.6.
Screening Cn1nc(C(F)(F)F)c(-c2cccc(C(F)(F)F)c2)c1NC(=O)CSCC(=O)O returned CDC25B CDK2 inh -1.6.
`O=C(Cn1cc2c(n1)CCCCC2)Nc1ccc(F)cc1F` gave CDC25B CDK2 inh -1.3.
`COc1ccc2c(c1)NC(c1ccc(OCc3ccccc3)c(OC)c1)=NC(c1ccncc1)=N2` gave CDC25B CDK2 inh -1.4 and HIV TAR-Tat 1.
`O=S(=O)(Nc1ccc2c(c1)N(S(=O)(=O)c1ccccc1)CCC2)c1ccc2c(c1)OCCO2` gave HIV TAR-Tat 0.88.
CCc1ccc(C2C(C(=O)OC)=C(N)OC3=C2C(=O)CC(C)(C)C3)cc1 (stereo not drawn) was read as CDC25B CDK2 inh 4.2.
Screening O=C(CC1(CC2=NS(=O)(=O)c3ccccc3N2)CCCC1)NCCCc1ccco1 returned HIV TAR-Tat 1.
N#Cc1cccc(C(=O)Cc2cccc(Cl)c2)c1 was read as CDC25B CDK2 inh -1.2.
For N#CC(C#N)=CNC1CCSC1 (stereo not drawn) the results were CDC25B CDK2 inh -1.6.
For Cn1ccc2cc(S(=O)(=O)N3CCCC(C(=O)N4CCN(c5ncccn5)CC4)C3)ccc21 (stereo not drawn) the results were HIV TAR-Tat 0.53.
`CC1CCC(NC(=O)C2CCN(C(=O)c3cc4sccc4n3C)CC2)CC1` (stereo not drawn) gave CDC25B CDK2 inh -0.85 and HIV TAR-Tat -1.1.
C=C(C)Cn1c(N2CCCCC2)nc2c1c(=O)n(C)c(=O)n2C was read as CDC25B CDK2 inh -1.4 and HIV TAR-Tat 2.1.
For O=C(CCS(=O)(=O)c1ccc2c(c1)CCN2C(=O)C1CC1)Nc1ccccc1F the results were HIV TAR-Tat 1.2.
CCOC(=O)c1[nH]c(C)c(C(=O)NC2CCCC2)c1C was read as CDC25B CDK2 inh -0.85 and HIV TAR-Tat 0.52.
Screening COc1ccc(-c2n[nH]c3c2C(c2cc(OC)ccc2OC)NC3=O)cc1 (stereo not drawn) returned HIV TAR-Tat -0.7.
Cc1ccc(N2CC(C)Cn3c2nc2c3c(=O)n(CC(=O)O)c(=O)n2C)cc1 (stereo not drawn) was read as CDC25B CDK2 inh -0.46 and HIV TAR-Tat -1.9.
Screening CCC(C)N(CCNS(=O)(=O)c1ccc2c(c1)NC(=O)CCS2)Cc1cccs1 (stereo not drawn) returned HIV TAR-Tat 0.63.
`CN1C(=O)NC(c2cccc(F)c2)C(C(=O)c2cccs2)C1(O)C(F)(F)F` (stereo not drawn) gave CDC25B CDK2 inh -2.4.
Screening CC(C)(CO)Nc1c[nH]c(=O)[nH]c1=O returned CDC25B CDK2 inh -1.3 and HIV TAR-Tat 0.37.
Screening Cc1nc(-c2nnc(N)o2)c(C)s1 returned CDC25B CDK2 inh -1.8 and HIV TAR-Tat 1.1.
For CSC1=NC(C)(C)CC12C=CC(=O)C=C2 the results were CDC25B CDK2 inh -1.9.
Screening O=C1c2ccc(Oc3ccc([N+](=O)[O-])cc3)cc2C(=O)N1c1cccc(-c2nc3ccccc3o2)c1 returned CDC25B CDK2 inh -1.7.
CCOC(=O)n1c(=O)oc2ccccc21 was read as CDC25B CDK2 inh -0.99 and HIV TAR-Tat 0.99.
Screening C=CCOc1ccc(-c2nc3c(c(=O)[nH]2)Cc2cc(Br)ccc2O3)cc1 returned CDC25B CDK2 inh -1.8 and HIV TAR-Tat 0.4.
Screening Cc1ccccc1C1NC(=O)c2c(sc3c2CCN(C)C3)N1 (stereo not drawn) returned CDC25B CDK2 inh 0.15 and HIV TAR-Tat 1.9.
Screening CCOc1ccc(C2NC(=O)c3n[nH]c(-c4cccs4)c32)cc1 (stereo not drawn) returned CDC25B CDK2 inh -1.1 and HIV TAR-Tat -0.98.
For CCCc1nc2nc(C)c(NS(=O)(=O)c3ccc(Br)cc3)c(=O)n2[nH]1 the results were CDC25B CDK2 inh -3.1 and HIV TAR-Tat -0.74.
Screening COc1ccc(S(=O)(=O)NCC2CCCO2)cc1C(=O)O (stereo not drawn) returned CDC25B CDK2 inh 0.65 and HIV TAR-Tat -1.9.
`COc1ccc(Cl)cc1NC(=O)Nc1cn(C)c(=O)c2ccccc12` gave HIV TAR-Tat 0.27.
COc1ccc2c(c1)C(C)CC(C)(C)N2C(=O)CSc1ncccn1 (stereo not drawn) was read as CDC25B CDK2 inh -0.62 and HIV TAR-Tat 0.47.
For Cc1cc2c(cc1C)C(c1ccc(F)c(Br)c1)CC(=O)N2 (stereo not drawn) the results were CDC25B CDK2 inh -1.2 and HIV TAR-Tat 0.98.
CCOc1cc(C2CC(=O)NC3=C2C(=O)CC(c2ccccc2Cl)C3)cc(Cl)c1O (stereo not drawn) was read as CDC25B CDK2 inh -0.1 and HIV TAR-Tat 1.9.
For ONC=Nc1nonc1-c1cccnc1 the results were CDC25B CDK2 inh -0.71.
For O=c1c(NCc2ccc(Cl)cc2)c(-c2ccccc2)c1=O the results were HIV TAR-Tat 1.7.
For COC(=O)c1ccc(N2CC(O)=C(c3nc4ccc(C)cc4[nH]3)C2=N)cc1 the results were CDC25B CDK2 inh 1.7 and HIV TAR-Tat 2.2.
`Cc1cc(C)nc(Nc2nc(-c3ccc(O)c(O)c3)cs2)n1` gave CDC25B CDK2 inh 1.1 and HIV TAR-Tat 29*.
CCCc1c(C(=O)Nc2ncn[nH]2)cnn1-c1ccccc1 was read as CDC25B CDK2 inh -0.98.
For CCN(c1ccccc1)S(=O)(=O)c1ccc2c(c1)C(C)(C)C(=O)N2C the results were HIV TAR-Tat 1.3.
FC(F)(F)c1cc(-c2ccncc2)nc2c(-c3ccc(Cl)cc3)cnn12 was read as CDC25B CDK2 inh -0.62 and HIV TAR-Tat -1.6.
Screening COc1ccc2c(c1)C=C(C(=O)Nc1ccc(N3CCOCC3)cc1)C=CO2 returned CDC25B CDK2 inh -1.7 and HIV TAR-Tat -0.36.
`O=C(CSc1nc2ccccc2s1)Nc1ncccn1` gave CDC25B CDK2 inh -0.27 and HIV TAR-Tat 0.44.
For Clc1ccc(C2=CC(c3cccs3)n3ncnc3N2)cc1 (stereo not drawn) the results were HIV TAR-Tat -4.1.
COc1ccc(NC(=O)C2=Cc3cc(Br)ccc3OC2)cc1OC was read as HIV TAR-Tat 0.86.
`Cc1ccc(C(=O)Oc2cccc(C3C4=C(Nc5c3c(=O)[nH]c(=O)n5C)c3ccccc3C4=O)c2)cc1` (stereo not drawn) gave CDC25B CDK2 inh -1.7 and HIV TAR-Tat 1.1.
Screening O=C1CCCC2=C1C(c1cccs1)N(C(=O)Nc1ccccc1Cl)c1ccccc1N2 (stereo not drawn) returned HIV TAR-Tat 0.42.

An excerpt from above in order of heavy-atom count, lowest first:
For ONC=Nc1nonc1-c1cccnc1 the results were CDC25B CDK2 inh -0.71.
`O=C(CSc1nc2ccccc2s1)Nc1ncccn1` gave CDC25B CDK2 inh -0.27 and HIV TAR-Tat 0.44.
For Clc1ccc(C2=CC(c3cccs3)n3ncnc3N2)cc1 (stereo not drawn) the results were HIV TAR-Tat -4.1.
`Cc1cc(C)nc(Nc2nc(-c3ccc(O)c(O)c3)cs2)n1` gave CDC25B CDK2 inh 1.1 and HIV TAR-Tat 29*.
COc1ccc(NC(=O)C2=Cc3cc(Br)ccc3OC2)cc1OC was read as HIV TAR-Tat 0.86.
For CCN(c1ccccc1)S(=O)(=O)c1ccc2c(c1)C(C)(C)C(=O)N2C the results were HIV TAR-Tat 1.3.
For COC(=O)c1ccc(N2CC(O)=C(c3nc4ccc(C)cc4[nH]3)C2=N)cc1 the results were CDC25B CDK2 inh 1.7 and HIV TAR-Tat 2.2.
Screening COc1ccc2c(c1)C=C(C(=O)Nc1ccc(N3CCOCC3)cc1)C=CO2 returned CDC25B CDK2 inh -1.7 and HIV TAR-Tat -0.36.
Screening O=C1CCCC2=C1C(c1cccs1)N(C(=O)Nc1ccccc1Cl)c1ccccc1N2 (stereo not drawn) returned HIV TAR-Tat 0.42.
`Cc1ccc(C(=O)Oc2cccc(C3C4=C(Nc5c3c(=O)[nH]c(=O)n5C)c3ccccc3C4=O)c2)cc1` (stereo not drawn) gave CDC25B CDK2 inh -1.7 and HIV TAR-Tat 1.1.
